PINK1 expr mod – modulators of PINK1 expression; PINK1 immunofluorescence, high-content cytometry, 24 h; Potency, µM (top dose mostly 76.6 µM), inactives show at the highest dose activation (PINK1 increase), usual class: activators; 0.2% of 410,000 active; active = well fitted activation curve with a large enough effect; inconclusive = small, poorly fitted or top-dose-only effect; inactive = flat fitted curve, though single readings scatter; cell line not stated here;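 also: potency is read from the fitted curve at half-maximal effect; % of control where 0% means no effect; nearly all actives have a fitted effect of over 65% in size; a mitochondrial uncoupler was the plate control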
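Fluorescence from anti-PINK1 antibody, together with nuclear and cell stains, was scanned on a laser-scanning cytometer. Before staining, stable-line cells were incubated 24 hours with compounds at 5 concentrations; primary antibody 12 h at 10 degrees C.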
CtBP-E1A blk – CtBP/E1A binding inhibition; AlphaScreen GST-E1A/His-CtBP binding, 1536-well; hits give low values; control for the full effect not named in the record; activity change, % (no concentration beside the values); 0.49% of 340,000 active; in the data active means activity change below about -65%; inconclusive means about -30% to -65%; inactive means above about -30%; also: % is scaled to controls: 0 for no effect and ±100 for the full control effect; compound concentration not given in the record
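GST-E1A and His-tagged CtBP (125 nM each as 5X stock) were preincubated with pin-transferred compound for 2 h at 37 °C in the dark, then glutathione donor and nickel acceptor beads were added for 1 h before AlphaScreen reading.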
TRPML1 ag – human mucolipin-1 channel agonism. Q9GZU1. TRPML1-expressing cells, Ca2+ dye fluorescence, FDSS; host cell line not named in the record; reference of the full effect not given here. activation, % (concentration not given with the values). 0.12% of 410,000 active; in the data active = activation above about 50%; inconclusive = about 30% to 50%; inactive = below about 30%; also: 0% is about no effect; the text of the record puts the active cut at 80%
Target sequence (Q9GZU1 whole entry, looked up): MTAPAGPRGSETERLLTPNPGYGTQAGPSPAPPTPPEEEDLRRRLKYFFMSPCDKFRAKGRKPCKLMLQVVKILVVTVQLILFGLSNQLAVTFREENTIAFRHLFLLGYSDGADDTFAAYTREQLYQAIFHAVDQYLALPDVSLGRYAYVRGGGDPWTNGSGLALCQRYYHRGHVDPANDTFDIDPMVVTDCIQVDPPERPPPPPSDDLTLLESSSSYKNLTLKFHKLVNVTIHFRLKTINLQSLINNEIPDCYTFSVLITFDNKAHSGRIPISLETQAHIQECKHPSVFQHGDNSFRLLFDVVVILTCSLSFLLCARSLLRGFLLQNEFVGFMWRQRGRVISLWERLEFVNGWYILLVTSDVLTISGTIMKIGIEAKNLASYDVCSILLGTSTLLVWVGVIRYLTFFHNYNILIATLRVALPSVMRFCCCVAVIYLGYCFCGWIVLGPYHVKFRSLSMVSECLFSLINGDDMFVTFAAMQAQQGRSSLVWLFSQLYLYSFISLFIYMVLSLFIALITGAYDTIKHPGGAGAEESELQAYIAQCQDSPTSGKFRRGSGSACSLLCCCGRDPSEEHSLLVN
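Tetracycline-induced TRPML1-DL cells are seeded and incubated overnight before loading with a no-wash Ca2+ dye and quencher. Agonist activity is taken from the 110 s fluorescence read following compound pin-transfer on an FDSS, before EC80 54-4 challenge.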
Six1-Eya2 inh – blocks human Six1 binding to Eya2; AlphaScreen GST-Six1/His-Eya2 binding, biochemical; hits give low values; control for the full effect not named in the record; Q15475+O00167; activity change, % (no concentration beside the values); 0.56% of 360,000 active; in the data active = activity change below about -65%; inconclusive = about -30% to -65%; inactive = above about -30%; also: % is scaled to controls: 0 for no effect and ±100 for the full control effect; compound concentration not given in the record
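GST-Six1 + His-Eya2 (5X stock: 250/500 nM); Tris pH 8.0, 300 mM NaCl, 0.05% BSA, 0.02% Tween 20; GSH donor/Ni acceptor beads; 1 h 37 °C dark; AlphaScreen readout.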
TRPML1 inh – inhibitors of human TRPML1 channel | Q9GZU1 | TRPML1-inducible cells, Ca2+ dye fluorescence, FDSS; hits give low values; inhibition of EC80 agonist-evoked calcium signal | activity change, negative = inhibition, % (no concentration beside the values) | 0.02% of 390,000 active; in the data active means activity change below about -50%; inconclusive means about -30% to -50%; inactive means above about -30%;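 also: stimulus is agonist 54-4 at its EC80 concentration; % is scaled to controls: 0 for no effect and ±100 for the full control effect; compound concentration not given in the record; the text of the record puts the active cut at -80%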
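TRPML1-DL cells, Tet-induced overnight (~16 h, 37 °C) at 1,500 cells/well, were loaded with Ca8 no-wash dye plus quencher for 45-90 min at room temperature. Compounds were pinned during FDSS kinetic reading; agonist 54-4 at EC80 (4 uM final) then added.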
D2 ag – activates the human D2 dopamine receptor; P14416; DiscoveRx PathHunter D2 beta-arrestin, luminescence, 90 min; 100% = 57 uM dopamine signal; activation, % (no concentration beside the values); 0.084% of 360,000 active; AID 624465; in the data active = activation above about 40%; inconclusive = about 15% to 40%; inactive = below about 15%; also: compound concentration not given in the record; the text of the record calls up to 30% inactive
Target sequence (P14416 whole entry, looked up): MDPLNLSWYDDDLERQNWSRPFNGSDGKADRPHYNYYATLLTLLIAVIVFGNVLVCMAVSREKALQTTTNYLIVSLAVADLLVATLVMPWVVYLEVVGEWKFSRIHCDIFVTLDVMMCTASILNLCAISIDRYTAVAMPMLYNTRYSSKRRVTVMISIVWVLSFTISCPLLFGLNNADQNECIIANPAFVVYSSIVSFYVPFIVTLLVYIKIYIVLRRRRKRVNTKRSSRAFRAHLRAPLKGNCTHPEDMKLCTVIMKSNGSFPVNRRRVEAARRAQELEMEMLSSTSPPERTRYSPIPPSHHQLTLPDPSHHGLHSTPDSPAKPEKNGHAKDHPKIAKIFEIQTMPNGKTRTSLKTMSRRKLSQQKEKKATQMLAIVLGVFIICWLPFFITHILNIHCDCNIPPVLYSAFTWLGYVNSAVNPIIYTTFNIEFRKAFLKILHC
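Agonist mode: compounds alone added to overnight-plated D2 PathHunter cells for 90 min at 37 C, with 57 uM final dopamine (EC100) defining full response. Beta-arrestin recruitment detected by chemiluminescent reagent, read after 1 h at ambient temperature.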
An asterisk follows results filed as active; ? = inconclusive; . = no result given; [ ] = remark or other dose.

SMILES	PINK1 expr mod	CtBP-E1A blk	TRPML1 ag	Six1-Eya2 inh	TRPML1 inh	D2 ag
Cc1ccc(C)c(NC(=S)NC(NC(=O)OCc2ccccc2)C(Cl)(Cl)Cl)c1 (stereo not given)	9.4%	-4.9	1.7	6.2	6.2	-1.7
C/C(CC(=O)Nc1ccc(Cl)c(C(F)(F)F)c1)=N\NC(=O)c1cc2ccccc2cc1O	?	21.4	0.5	-2.7	-18.2	-3.9
CN1OC[C@@H]2CN(Cc3ccccc3)[C@H](c3cccc(-c4ccc(C#N)cc4)c3)C[C@@H]21	-1.3%	-5.1	2.2	-16.8	79.2	2.9
O=C(CN1CCCCCC1)N/N=C/c1cccs1	2.7%[38.3 µM]	-5.0	0.9	-0.4	10.6	-2.5
CC1=C/C(=N\N=C2\NC(=O)C(CC(=O)Nc3ccccc3F)S2)CC(C)(C)C1 (stereo not given)	-0.1%	-8.7	2.9	2.7	-20.8	-4.5
COc1ccc(OCC(O)CN(C)C(=O)C(C)Oc2ccccc2)cc1 (stereo not given)	-0.9%	.	-0.7	-25.3	-5.8	3.4
Cc1oc(=O)c(NC(=O)c2cccc(Cl)c2)cc1C(=O)c1ccccc1	11.1%	3.0	-0.4	-4.8	-4.5	-6.8
CCN(Cc1ccccc1)S(=O)(=O)CCNC(=O)c1ccccc1	-3.2%	-14.6	-0.4	11.1	2.5	-1.6
Cc1cc(C)nc(NC(=O)Cc2ccc([N+](=O)[O-])cc2)c1	2.9%	-5.8	-0.9	-15.8	-1.2	-1.0
CCC(CC)C(=O)Nc1ccc(C(=O)c2ccccc2)cc1	1.9%	2.7	-1.8	-6.9	-6.4	1.8
O=C(CCN1C(=O)c2cccc([N+](=O)[O-])c2C1=O)NC1CCCCCC1	-0.8%	5.0	0.5	1.3	30.9	-2.7
O=C(NCCc1ccc2c(c1)OCO2)C1CCN(S(=O)(=O)c2ccc(Cl)cc2)CC1	-2.2%[38.3 µM]	10.8	-0.1	-0.3	26.6	-0.6
O=C(O)c1cc(-c2ccc(-c3ccc(F)cc3)o2)nc2ccccc12	-1.0%	-5.7	-0.3	-19.6	5.2	-2.4
CCN(CC)S(=O)(=O)c1cc(C(=O)Nc2ccccn2)ccc1C	-0.4%[38.3 µM]	-1.2	-0.2	-1.4	-14.4	-1.9
O=C(NCCc1ccc(Cl)cc1)C1COc2ccccc2O1 (stereo not given)	0.9%	13.3	0.5	21.5	-1.7	-1.8
CN1CCOCCOc2ccccc2OCCOCC1	-0.6%	10.3	-0.1	-3.3	23.4	-7.8
COc1ccc2c(=O)c(-c3nc(C)cs3)coc2c1	1.1%	-0.8	1.8	0.7	3.2	0.8
Cc1ccc(-c2c(C#N)c(N)n(-c3ccccc3)c(=O)c2C#N)cc1	?	2.6	0.6	0.0	-2.1	0.4
CSC1=NCCN1C(=O)c1ccc2ccccc2c1	0.2%	4.9	-0.1	3.6	-7.3	-2.7
COc1ccc(OCc2n(CC(=O)OC3CC(C)CCC3C(C)C)c3ccccc3[n+]2C)cc1 (stereo not given)	-2.0%	-8.1	1.1	-6.2	25.3	-7.6
COc1ccc(OC)c(NC(=O)CSc2nc3ccccc3nc2N2CCCCC2)c1	1.9%	.	2.1	.	17.4	.
Cc1nc(N2CCN(S(=O)(=O)c3ccc(F)cc3)CC2)c2c(C)c(C)sc2n1	1.0%[38.3 µM]	16.0	-0.8	2.6	-7.9	0.2
Cc1cn2c(=O)c(S(=O)(=O)NC(C)c3ccccc3)c(C)nc2s1 (stereo not given)	1.1%	.	-0.5	.	-8.0	.
COc1ccc(Cl)cc1C(=O)NNC(=S)NC1CCCC1	1.9%	7.0	1.2	1.4	3.4	0.4
COc1cccc(S(=O)(=O)N(C)C[C@@H]2OCc3cnnn3CCCC(=O)N([C@H](C)CO)C[C@@H]2C)c1	0.6%	0.3	-0.5	-0.3	-12.2	-5.5

Looked up above:
CN1CCOCCOc2ccccc2OCCOCC1 in TRPML1 inh = 23.4
O=C(CN1CCCCCC1)N/N=C/c1cccs1 in D2 ag = -2.5

Compound profiles, as listed above. Order of values: PINK1 expr mod	CtBP-E1A blk	TRPML1 ag	Six1-Eya2 inh	TRPML1 inh	D2 ag
Cc1ccc(-c2c(C#N)c(N)n(-c3ccccc3)c(=O)c2C#N)cc1 reads ?	2.6	0.6	0.0	-2.1	0.4
O=C(CN1CCCCCC1)N/N=C/c1cccs1 reads 2.7%[38.3 µM]	-5.0	0.9	-0.4	10.6	-2.5

(more compounds)
SMILES	PINK1 expr mod	CtBP-E1A blk	TRPML1 ag	Six1-Eya2 inh	TRPML1 inh	D2 ag
COc1ccc(S(=O)(=O)Nc2ccc3c(c2)OCCO3)cc1Cl	3.4%	-0.5	4.9	-3.8	4.2	-0.5
COc1cccc(/C=N/NC(=O)c2cc(-c3cccn3C)n[nH]2)c1O	0.5%	-89.9*	1.8	-89.8*	-1.2	-3.2
CCCCCCN1C[C@@H](n2cc(C3CC3)nn2)[C@H](O)C[C@@H]1c1ccc(C)cc1	-0.8%	-16.0	1.1	-9.2	27.4	-8.8
CC(=O)c1ccc(NC(=O)Nc2ccc([N+](=O)[O-])cc2C)cc1	2.8%	2.1	0.7	9.2	2.5	-2.3
COc1ccc(CC(=O)NCCc2sc(-c3ccc(Cl)cc3)nc2C)cc1OC	-0.1%	.	2.4	.	-19.1	.
COC(=O)Cc1ccc(NC(=O)c2ccc3c(c2)C(=O)N(Cc2cccnc2)C3=O)cc1	0.5%	-23.8	1.2	-5.8	-1.5	8.8
CCn1ccnc1CN(C)C(=O)C1CCC(=O)N(CCc2cccc(F)c2)C1 (stereo not given)	0.3%	4.2	-0.5	6.7	-5.0	-6.1
CC1CC(C)CN(S(=O)(=O)c2ccc3c(c2)CC(C)N3C(=O)C2CCC2)C1 (stereo not given)	0.8%	-1.4	5.4	-3.3	61.4	-1.1
O=C(NC(=S)NCc1ccccc1)c1ccc2c(c1)OCO2	-0.8%	-6.0	2.1	-20.5	-1.9	2.2
COC(=O)c1c(NC(=O)Cc2coc3cc(C)ccc23)sc2c1CCCC2	-0.3%	.	0.7	.	-12.4	.
O=C(Nc1cccc2ccccc12)c1onc2c1CCCC2	0.8%	10.8	-0.3	4.5	4.5	-0.5
CCC12CCC3c4ccc(O)cc4CCC3C1CC(O)C2O (stereo not given)	14.9%	-4.7	-0.2	2.5	8.5	-0.5
COc1cc(/C=C2\SC(=O)N(c3cccc(Cl)c3)C2=O)cc([N+](=O)[O-])c1O	-0.6%	-21.8	0.6	?	8.6	-4.4
CC1CN(C(c2cccs2)c2sc3ncnn3c2O)CC(C)O1 (stereo not given)	-0.3%	6.5	-0.1	0.3	5.9	-0.3
CN1CCN(S(=O)(=O)c2ccc3c(c2)OCCO3)CC1	2.5%	-0.2	-0.6	0.9	-12.6	-1.7
COc1cc(-c2nnc(CSc3nnc(N)s3)o2)cc(OC)c1OC	-0.5%	0.8	-0.4	-10.8	2.8	-0.6
COC(=O)C1=C(C)N(CCC2=CCCCC2)C(=O)C1	-1.0%	1.2	-0.2	-1.9	-16.7	0.2
CC1Cc2ccccc2N1C(=O)COC(=O)c1ccc(N(C)C)cc1 (stereo not given)	5.4%	.	0.3	-15.1	-11.0	0.1
N/C(=N\OC(=O)c1ccc2c(c1)OCO2)c1ccc(Cl)cc1	-6.5%[38.3 µM]	1.6	0.0	-6.1	5.2	12.8
CCn1c2ccccc2c2cc(Nc3cc(C)nc4ncnn34)ccc21	8.4%	-6.3	0.5	-0.8	4.5	1.8
CC1CCN(CC(O)COc2ccc(C(=O)c3ccccc3)cc2)CC1 (stereo not given)	0.7%	6.3	0.3	-8.6	9.9	-0.9
COc1ccc(NC(=O)CC2C(=O)N(c3ccc(F)cc3)C(=S)N2NC(=O)c2ccc(Cl)cc2)cc1 (stereo not given)	0.9%	-0.2	-1.4	5.2	5.7	-6.6
CCOc1ccc(NC(=O)NC(C)c2ccc3c(c2)OCO3)cc1 (stereo not given)	0.5%	-0.1	0.1	-2.0	-19.7	2.3
CCC(=O)Nc1cccc(Br)c1	-0.5%	2.5	-0.7	-0.7	1.9	0.6
Cc1ccc(OCCNC(=O)Cc2ccc(F)cc2)cc1	-0.7%	.	3.1	-0.2	24.5	-4.1

The listing continues.
SMILES	PINK1 expr mod	CtBP-E1A blk	TRPML1 ag	Six1-Eya2 inh	TRPML1 inh	D2 ag
COCCCNc1c2c(nc3nnnn13)CCCC2	0.1%	-0.6	0.4	0.7	36.5	-0.9
CCCN1CCN(CC(=O)Nc2nnc(C)s2)CC1	-0.7%	.	1.4	8.3	-14.4	-5.0
Cc1cc(Oc2nc3c(C)cccn3c(=O)c2/C=C(\C#N)S(=O)(=O)c2ccc(Cl)cc2)ccc1Cl	15.3%	-7.2	-0.6	7.6	9.8	-1.5
COc1ccc(CN2CCN(Cc3ccc4ccccc4c3)CC2)cc1OC	3.3%	-19.8	-0.7	?	34.3	-5.2
CCOc1ccccc1-n1c(=S)sc2c(=O)n(-c3ccc(C)cc3)c(=S)[nH]c21	-1.0%	-21.0	66.3*	-12.2	?	3.2
CN(Cc1ccon1)C(=O)CC1C(=O)NCCN1CC(C)(C)C (stereo not given)	0.3%	.	0.3	15.0	-7.0	3.1
O=C(N/N=C/c1c(O)n(Cc2ccccc2)c(=O)c2ccccc12)c1cccnc1	0.2%	-0.8	10.6	-15.0	-4.9	4.7
O=C(Cn1c(-c2cccs2)cc2cc(F)ccc21)NCCCN1CCN(c2ccccc2F)CC1	-0.1%	.	0.4	.	18.5	.
COc1ccccc1C1Nc2ccccc2-n2c(-c3ccccc3)c3c(=O)n(C)c(=O)n(C)c3c21 (stereo not given)	0.6%	.	1.8	.	71.1	.
O=C(COc1ccc2oc(-c3ccccc3)cc(=O)c2c1)NCc1ccco1	7.5%	-23.8	-0.9	-26.4	-4.9	-6.2
COc1cc(NC(=O)c2c3c(nc4ccccc24)C(=O)N(C2CCCCC2)C3)cc(OC)c1	0.8%	.	-0.1	.	-11.0	.
O=C(CNC(=S)N(CCCN1CCOCC1)Cc1cccs1)NCc1ccccc1Cl	0.5%	.	0.4	14.5	-11.2	-7.2
OCCC1CN(Cc2cccn2-c2cccnc2)CCN1Cc1ccc(F)cc1 (stereo not given)	0.7%	.	0.1	0.0	-1.4	-0.4
Cc1ccc(/C=N/n2c(-c3ccccn3)n[nH]c2=S)o1	-0.4%	.	0.4	-20.7	-2.9	6.1
COc1cccc([C@@H]2Oc3ccc(OC)cc3C(=O)[C@H]2O)c1	-0.1%	-1.9	-0.4	3.9	-8.1	-11.1
CN(C/C=C/c1ccccc1[N+](=O)[O-])Cc1ccccc1	3.1%	.	-1.1	-23.5	5.9	1.3

Filtered by structure, the entries above with a cyano group
SMILES	PINK1 expr mod	CtBP-E1A blk	TRPML1 ag	Six1-Eya2 inh	TRPML1 inh	D2 ag
CN1OC[C@@H]2CN(Cc3ccccc3)[C@H](c3cccc(-c4ccc(C#N)cc4)c3)C[C@@H]21	-1.3%	-5.1	2.2	-16.8	79.2	2.9
Cc1ccc(-c2c(C#N)c(N)n(-c3ccccc3)c(=O)c2C#N)cc1	?	2.6	0.6	0.0	-2.1	0.4
Cc1cc(Oc2nc3c(C)cccn3c(=O)c2/C=C(\C#N)S(=O)(=O)c2ccc(Cl)cc2)ccc1Cl	15.3%	-7.2	-0.6	7.6	9.8	-1.5

Assay outcomes deposited in PubChem by National Center for Advancing Translational Sciences (NCATS).
